# Compound activity (PubChem BioAssay)
# Polio RdRp inh = inhibitors of poliovirus RNA polymerase binding and polymerization | poliovirus polymerase elongation, fluorescence polarization; stronger effect = lower value | P03300 | AID 588519 | % elongation, % (compound at 16.7 µg/mL) | actives 0.66% (n = 150,000); in the data active = % elongation below about 90%; also: some results filed as inactive read as strong as hits
# Target sequence (P03300 1749-2209 limits assumed): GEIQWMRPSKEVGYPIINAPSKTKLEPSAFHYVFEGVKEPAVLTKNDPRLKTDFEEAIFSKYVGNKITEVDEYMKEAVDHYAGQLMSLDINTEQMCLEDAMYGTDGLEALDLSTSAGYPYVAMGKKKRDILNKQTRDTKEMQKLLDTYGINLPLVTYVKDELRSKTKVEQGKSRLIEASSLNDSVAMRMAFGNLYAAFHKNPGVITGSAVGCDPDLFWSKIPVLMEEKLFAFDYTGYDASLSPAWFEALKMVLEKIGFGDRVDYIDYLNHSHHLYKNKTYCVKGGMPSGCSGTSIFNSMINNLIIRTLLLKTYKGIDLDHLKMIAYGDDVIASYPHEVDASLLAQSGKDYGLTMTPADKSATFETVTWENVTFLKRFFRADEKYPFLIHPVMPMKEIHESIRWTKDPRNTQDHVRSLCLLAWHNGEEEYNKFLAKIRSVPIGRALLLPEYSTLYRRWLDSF
# Polio RdRp inh intensity = recorded beside Polio RdRp inh, whose call it bears; % elongation; measured here: total intensity read-out; formula for this scale not given here;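 total fluorescence in place of polarization; lower means less elongation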
# An asterisk follows results filed as active.
Molecule,Polio RdRp inh,Polio RdRp inh intensity
CC(C)NC(=O)c1ccc(-n2c(-c3ccccc3)cc3c2CCCCC3)cc1,106.0,99.0
Cc1nc(N2C(=O)c3oc4ccccc4c(=O)c3C2c2cccc(OCCC(C)C)c2)sc1C (configuration not stated),99.0,102.0
CC(C)(C)c1ccc(C(=O)NCC(c2cccs2)S(=O)(=O)c2cccs2)cc1 (configuration not stated),108.0,106.0
Cc1nn(C)c(C)c1CCNC(=O)Nc1cccc(Cl)c1C,113.0,108.0
Cc1ccc(N2CCN(C(=O)c3cn(C)c4ccc(S(=O)(=O)N(C)C5CCCCC5)cc4c3=O)CC2C)cc1 (configuration not stated),107.0,109.0
CCN1CCN(C(c2cccc(OC)c2)c2c(O)cc(C)n(Cc3ccco3)c2=O)CC1 (configuration not stated),110.0,101.0
O=c1[nH]c2ccccc2c(=O)n1-c1ccc(Cl)c(Cl)c1,107.0,110.0
CCOc1ccc(NC(=O)c2cc(S(=O)(=O)NC3CCCCCC3)ccc2F)cc1,112.0,116.0
COc1cccc(-c2cc(C(=O)Nc3ccc(C)cc3)[nH]n2)c1,110.0,106.0
CN1C(=O)c2ccccc2Sc2ccc(NC(=O)Cc3c(F)cccc3Cl)cc21,105.0,108.0
CCOC(=O)c1ccc(-n2c(C)nc3c(cnn3-c3ccc(Cl)cc3)c2=O)cc1,105.0,107.0
CCOc1ccccc1-n1ccnc(NCc2ccc(F)cc2)c1=O,109.0,113.0
Cc1ccc(CCNS(=O)(=O)c2c(C)nc3sc(C)c(C)n3c2=O)cc1,106.0,105.0
Cc1ccc(C2CC(=O)N(Cc3ccccc3)c3c2c(C)nn3-c2nc(C)cc(C)n2)cc1 (configuration not stated),107.0,110.0
Cc1ccc(CN2C(=O)c3ccccc3Sc3ccc(C(=O)NCc4ccco4)cc32)cc1,103.0,107.0
COc1ccc(C)cc1Nc1cc(C)nc(C)n1,112.0,109.0
O=C(O)c1cc(-c2ccc(C(F)(F)F)cc2)nc2n[nH]c(-c3ccccc3)c12,109.0,105.0
CCOC(=O)c1c(C)[nH]c(CCC(=O)Nc2ccccc2C(F)(F)F)c1C,108.0,113.0
COc1ccc(C2c3c(n(C)c4ccccc34)C(=O)N2CC(=O)Nc2cccc(Cl)c2C)cc1 (configuration not stated),115.0,114.0
COc1ccc(C(=O)NCC(c2ccc3c(c2)OCO3)N2CCN(c3ccccc3F)CC2)cc1 (configuration not stated),109.0,107.0
CCCn1cc(S(=O)(=O)c2ccccc2)c(=O)c2cc(F)c(N3CCCCC3)cc21,102.0,105.0
COc1ccc(/C=C/c2nc(C#N)c(N3CCC(C)CC3)o2)cc1OC,106.0,102.0
Cc1ccc(Nc2c(-c3cc(Br)ccc3F)nc3cc(C)ccn23)cc1,106.0,105.0
CCOc1ccc(-n2c(=O)c3c(C)c(C)sc3n(Cc3ccc(C(C)(C)C)cc3)c2=O)cc1,98.0,101.0
COc1cccc(CNCCCSc2nnnn2C)c1,105.0,95.0

# A few values from the results shown:
# In Polio RdRp inh, Cc1ccc(CCNS(=O)(=O)c2c(C)nc3sc(C)c(C)n3c2=O)cc1 has the entry 106.0
# In Polio RdRp inh intensity, COc1ccc(C2c3c(n(C)c4ccccc34)C(=O)N2CC(=O)Nc2cccc(Cl)c2C)cc1 (configuration not stated) has the entry 114.0
# In Polio RdRp inh, COc1cccc(-c2cc(C(=O)Nc3ccc(C)cc3)[nH]n2)c1 has the entry 110.0
# In Polio RdRp inh, Cc1ccc(N2CCN(C(=O)c3cn(C)c4ccc(S(=O)(=O)N(C)C5CCCCC5)cc4c3=O)CC2C)cc1 (configuration not stated) has the entry 107.0

# Random excerpt: 2 records from the list
Molecule,Polio RdRp inh,Polio RdRp inh intensity
CN1C(=O)c2ccccc2Sc2ccc(NC(=O)Cc3c(F)cccc3Cl)cc21,105.0,108.0
Cc1nn(C)c(C)c1CCNC(=O)Nc1cccc(Cl)c1C,113.0,108.0

# (listing goes on)
Molecule,Polio RdRp inh,Polio RdRp inh intensity
CC1CCN(S(=O)(=O)c2ccc3[nH]cc(C(=O)NCc4ccc(F)cc4)c(=O)c3c2)CC1,102.0,106.0
COCCCn1c(=O)c2sccc2n2c(CCCC(=O)Nc3cccc(C(F)(F)F)c3)nnc12,118.0,121.0
COc1ccc(C2C(C(N)=O)=C(C)Nc3nc(CCCO)nn32)cc1 (configuration not stated),109.0,114.0
COc1ccccc1N1C(=O)N(CC(=O)C(C)(C)C)c2ccccc2S1(=O)=O,104.0,105.0
CCOC(=O)c1ccc(NC(=O)C2=C(C)Nc3nc(SCc4ccc(Cl)cc4)nn3C2c2ccc(OC)cc2)cc1 (configuration not stated),104.0,105.0
COC(=O)Cn1c(CN2CCN(c3ccc(OC)cc3)CC2)nc2c1c(=O)[nH]c(=O)n2C,101.0,106.0
CCCn1c2ccccc2c2cnn(CC(=O)NCCc3ccc(OCC)cc3)c(=O)c21,105.0,104.0
CCOc1ccc(NC(=O)CN(C)S(=O)(=O)c2ccc3[nH]c4c(c3c2)CCCC4)cc1,104.0,108.0
CCOC(=O)c1ccccc1NC(=O)NC(C)c1c(-n2cccc2)sc(C)c1C (configuration not stated),111.0,106.0
CCn1c(CN2CCOCC2)nc2cc(NC(=O)c3cccc([N+](=O)[O-])c3)ccc21,100.0,103.0
CSc1ccc(CNC(=O)c2cc3cc(S(=O)(=O)N4CCCCC4)ccc3n2C)cc1,114.0,119.0
Cc1cccc(-c2noc(-c3cccnc3NCc3ccccc3Cl)n2)c1,112.0,117.0
COc1cccc(CNC(=O)CSc2c3c(nc4cc(Cl)ccc24)CCCC3)c1,103.0,108.0
CC(C)c1ccc(OCC(=O)Nc2cc(-c3ccccc3)no2)cc1,108.0,98.0
Cc1ccc(Cl)cc1N(C)C(=O)c1sc2nc3n(c(=O)c2c1C)CCCC3,100.0,106.0
CCNc1nc2c(c(=O)[nH]c(=O)n2C)n1CC(O)COc1ccc(Cl)cc1Cl (configuration not stated),101.0,100.0
Cc1noc(Cn2c(=O)c3ccccc3n(CC(=O)Nc3ccccc3C(F)(F)F)c2=O)n1,112.0,109.0
CCc1ccc2c(c1)c(=O)c(C(=O)c1ccc(C)cc1)cn2CC(=O)Nc1ccccc1C,109.0,111.0
CN(CC(=O)Nc1ccc(F)cc1F)S(=O)(=O)c1ccc(C(=O)N2CCOCC2)s1,102.0,110.0
COc1cc(OC)cc(C(=O)Nc2ccc3c(c2)CCCN3C(=O)c2cccs2)c1,107.0,96.0
COc1ccc(-c2onc(C)c2C)cc1S(=O)(=O)NCC1CCN(Cc2cc(C)ccc2C)CC1,108.0,112.0
Cc1ccc(-c2nc3ccccc3n3c(-c4ccccc4)c4c(=O)n(C)c(=O)n(C)c4c23)cc1,107.0,109.0
CC(C)CCn1c(=O)c2sccc2n2c(CCCC(=O)NC(C)C)nnc12,105.0,111.0
Cc1nnc(SCC(=O)Nc2ccc(N(C)C)cc2)[nH]c1=O,96.0,100.0
CCc1ccccc1NC(=O)Nc1cc(C(=O)NCc2cccc(F)c2)ccc1N1CCCC1,105.0,101.0
Cc1cccc(-c2nc(SCC(=O)Nc3ccc4c(c3)OCCO4)c(-c3ccccc3)[nH]2)c1,113.0,115.0
CCOC(=O)C1CCCN(C(=O)CCS(=O)(=O)c2cc3c(cc2Cl)NC(=O)CO3)C1 (configuration not stated),100.0,104.0
COc1ccc(CNC(=O)CN2C(=O)CCn3nc(-c4cn(C)c5ccccc45)cc32)cc1,108.0,114.0
O=C(Nc1cc(Cl)cc(Cl)c1)c1ccc(F)c(S(=O)(=O)NC2CCCCC2)c1,109.0,104.0
Cc1cc(C)c2c(c1)c(C)cc1nnc(SCC(=O)c3ccc(F)cc3)n12,108.0,101.0
COc1cccc(N2CCN(Cc3cc(=O)oc4cc(C)ccc34)CC2)c1,108.0,105.0
Cc1cccc(-n2c(N)cc(=O)nc2SCC(=O)Nc2ccc(F)cc2)c1C,106.0,111.0
COc1ccc(N2CC(NC(=O)c3ccc(S(=O)(=O)N4CCCCC4)cc3)CC2=O)cc1OC (configuration not stated),101.0,95.0
CC1Cc2ccccc2N1C(=O)CSc1nc2ccc(NC(=O)COc3ccccc3)cc2s1 (configuration not stated),110.0,109.0
COc1ccc(C)cc1NS(=O)(=O)c1ccc2c(c1)[C@H]1C=CC[C@H]1[C@@H](c1cccc(Cl)c1)N2,121.0,145.0
Cc1ccc(NC(=O)C2CCCN(c3ncnc4onc(-c5ccc(F)cc5)c34)C2)c(Cl)c1 (configuration not stated),108.0,112.0
CCOc1ccc(CCNC(=O)c2cnc3c(-c4ccc(F)cc4)c(C)nn3c2C)cc1,105.0,108.0
COCCNC(=O)c1cc(Sc2ccc(F)cc2F)nc2ccccc12,102.0,99.0
CCc1ccccc1NC(=O)CC(c1ccc(F)cc1)N1Cc2ccccc2C1=O (configuration not stated),111.0,104.0
CC(C)CCNC(=O)CN1N=C(c2ccc(Cl)cc2)CCC1=O,102.0,102.0
Cc1ccc(-n2c(=O)c3ccc(C(=O)NCc4ccccc4Cl)cc3n(Cc3cccc(F)c3)c2=O)cc1,101.0,101.0
Cc1ccc2sc(N(Cc3cccnc3)C(=O)CCS(=O)(=O)c3ccccc3)nc2c1C,105.0,96.0
CCOC(=O)C(C)Nc1ncnc2onc(C)c12 (configuration not stated),91.0,80.0
CCOC(=O)c1ccc(NC(=O)CN(c2ccc(C)cc2)S(=O)(=O)c2ccc(OC)cc2)cc1,106.0,99.0
Cn1c2c(c(=O)n(C)c1=O)C(c1cc(Br)ccc1F)CC(=O)N2 (configuration not stated),105.0,107.0
COc1ccc(C)cc1N(C)C(=O)CCc1nc(-c2ccccc2F)no1,100.0,105.0
Cc1ccc(N2CC(NC(=O)/C=C\c3ccc4c(c3)OCO4)CC2=O)cc1 (configuration not stated),110.0,105.0
CC(C)(C)NC(=O)CSc1nc(-c2ccc(F)cc2)cc(C(F)(F)F)n1,104.0,107.0
CC(=O)Nc1cccc(NC(=O)c2c(-c3ccccc3)c(-c3ccccc3)nn(C)c2=O)c1,101.0,104.0
COc1cc(OC)c(NC(=O)Nc2sc3nc4n(c(=O)c3c2C)CCC(C)CC4)cc1Cl (configuration not stated),107.0,113.0

# New compounds follow:
Molecule,Polio RdRp inh,Polio RdRp inh intensity
CC1CCCCN1CCCNC(=O)c1[nH]c2ccccc2c1Sc1ccc(Cl)cc1 (configuration not stated),117.0,131.0
Cc1ccc(NC(=O)CCn2c(=O)c3cccn3c3ccccc32)c(Cl)c1,101.0,105.0
CCOC(=O)c1sc2ncn(CC(=O)Nc3ccc(F)cc3F)c(=O)c2c1C,102.0,104.0
CCCOc1cccc(C(=O)Nc2cc(-c3ccccc3)no2)c1,109.0,103.0
Cc1ccc(NC(=O)Cn2c(=O)nc(-c3ccccc3)c3ccccc32)cc1F,110.0,108.0
Cc1ccc(NC(=O)Cn2c(=O)ccc3cc(S(=O)(=O)N4CCCC4)ccc32)cc1C,105.0,113.0
CCOC(=O)c1ccc(NC(=O)C(C)N(c2ccc(OCC)cc2)S(C)(=O)=O)cc1 (configuration not stated),105.0,105.0
O=C(c1ccc2c(c1)N(Cc1ccc(F)cc1)C(=O)c1ccccc1S2(=O)=O)N1CCCCCC1,101.0,101.0
CCCCNc1nc2c(c(=O)n(Cc3ccccc3)c(=O)n2C)n1C,114.0,116.0
COc1cc(NC(=O)C2CCN(c3cnccn3)CC2)cc(OC)c1,108.0,108.0
COc1cccc(NC(=O)CSc2ncc(S(=O)(=O)c3ccc(C)c(C)c3)c(=O)[nH]2)c1,103.0,102.0
COCCCN1C(=O)N(c2ccccc2)C(=O)C1CC(=O)Nc1ccc(F)cc1 (configuration not stated),102.0,105.0
CCOc1ccc(-c2nnc(SCC(=O)Nc3ccc(C)cc3C)o2)cc1,101.0,107.0
Cc1ccc(C(=O)c2cn(Cc3ccc(Cl)cc3)c3nc(C)ccc3c2=O)cc1,113.0,120.0
Cc1ccc(F)cc1NC(=O)CCc1c(C)nn(-c2ccc(N3CCOCC3)nn2)c1C,103.0,99.0
CCn1c(=O)n(CC)c2cc(N3CCCCC3)c(NC(=O)Nc3ccccc3Cl)cc21,107.0,108.0
CCOC(=O)c1c(C)oc2nc(C)nc(NCCCN3CCN(c4ccc(F)cc4)CC3)c12,96.0,99.0
COc1cc(OC)cc(C(=O)NCCc2csc(-c3cccc(C)c3)n2)c1,109.0,102.0
CCc1c(C)sc2c1CCN(Cc1cccc(OC)c1)C2c1ccccc1 (configuration not stated),114.0,121.0
CCOC(=O)c1ccc2c(c1)N(CC(=O)Nc1cc(F)ccc1F)C(=O)c1ccccc1S2,95.0,99.0
CC(C)CN(CCNC(=O)c1cc(-c2cccs2)nc2ccccc12)CC(C)C,104.0,105.0
Cc1ccc(C)c(N2CCN(C(=O)C3CCCN(Cc4nc(-c5cccc(Cl)c5)oc4C)C3)CC2)c1 (configuration not stated),109.0,109.0
Cc1ccc(CNC(=O)c2ccc(CS(=O)(=O)c3ccccc3C)o2)cc1,102.0,102.0
Cc1cc(NC(=O)Cc2ccccc2)cc(-c2nc3ccccc3o2)c1O,107.0,108.0
CN(C(=O)CSc1nc2ccc(NC(=O)CCc3ccccc3)cc2s1)c1ccccc1,110.0,114.0
CCN(CC)S(=O)(=O)c1nnc(NC(=O)COc2ccccc2Cl)s1,105.0,100.0

# Compounds above that contain a CF3 group (5):
Molecule,Polio RdRp inh,Polio RdRp inh intensity
O=C(O)c1cc(-c2ccc(C(F)(F)F)cc2)nc2n[nH]c(-c3ccccc3)c12,109.0,105.0
CCOC(=O)c1c(C)[nH]c(CCC(=O)Nc2ccccc2C(F)(F)F)c1C,108.0,113.0
COCCCn1c(=O)c2sccc2n2c(CCCC(=O)Nc3cccc(C(F)(F)F)c3)nnc12,118.0,121.0
Cc1noc(Cn2c(=O)c3ccccc3n(CC(=O)Nc3ccccc3C(F)(F)F)c2=O)n1,112.0,109.0
CC(C)(C)NC(=O)CSc1nc(-c2ccc(F)cc2)cc(C(F)(F)F)n1,104.0,107.0

# Some of the compounds tested; rates above refer to the full screens.
